MARV entry inh: blocks Marburg virus binding to or entry into cells | Potency, µM (titrated, usually from 37.8 µM), for the others: at the top dose activity change, negative = inhibition, usual class: inhibitors | AID 540276 | 1.8% of 300,000 active | Marburg virus pseudotyped entry inhibition, cell reporter; control for the full effect not named in the record; about a third of the inactives were read at about 46 µM; active = well fitted inhibition curve with a large enough effect; inconclusive = small, poorly fitted or top-dose-only effect, or effect the other way; inactive = flat fitted curve, though single readings scatter; tested in HEK293 cells; about a fifth of its hits are not listed in these tables; further: on the % scale 0 is the no-effect control and ±100 the full control effect; luciferase read-out
Cruzain noTriton: blocks cruzain activity in detergent-free assay; P25779; Potency, µM, inactives show max response, negative = inhibition, most hits filed as inhibitors; 2.3% of 200,000 active; AID 1476; purified cruzain, Z-FR-AMC fluorescence, no detergent; active means well fitted curve in the direction sought with a large enough effect; inconclusive means small, poorly fitted or top-dose-only effect, or another doubt; inactive means no such curve, though single readings can be large; an effect the other way counts as inactive or inconclusive;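 further: plate controls were enzyme without inhibitor for no effect and buffer without enzyme for full effect; nearly all actives have a fitted effect of over 40% in size; top concentration of the series not given in the record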
Target sequence (P25779 123-467 limits assumed): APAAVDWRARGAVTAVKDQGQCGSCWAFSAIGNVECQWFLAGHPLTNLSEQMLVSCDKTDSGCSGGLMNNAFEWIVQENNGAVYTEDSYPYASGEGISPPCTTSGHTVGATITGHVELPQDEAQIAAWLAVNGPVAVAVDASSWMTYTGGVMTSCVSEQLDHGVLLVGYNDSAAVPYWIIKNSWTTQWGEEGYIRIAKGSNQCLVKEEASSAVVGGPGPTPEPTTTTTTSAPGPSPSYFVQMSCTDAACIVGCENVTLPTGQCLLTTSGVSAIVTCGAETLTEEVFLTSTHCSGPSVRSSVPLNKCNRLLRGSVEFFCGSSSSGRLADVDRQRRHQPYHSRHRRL
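Detergent-free condition (0.00005% Triton X-100) in acetate buffer pH 5.5 with DTT. 1.5 nM enzyme and compound were pre-mixed 15 min, then 2 uM Z-FR-AMC substrate added; reaction progress from fluorescence change between first and third reads (60 s).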
Cruzain inh Det: cruzain (T. cruzi) inhibition with detergent. purified cruzain, Z-FR-AMC fluorescence, 0.01% Triton. Potency, µM, inactives show max response, negative = inhibition, most hits filed as inhibitors. 0.43% of 200,000 active; active means well fitted curve in the direction sought with a large enough effect; inconclusive means small, poorly fitted or top-dose-only effect, or another doubt; inactive means no such curve, though single readings can be large; an effect the other way counts as inactive or inconclusive;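 further: plate controls were neutral wells for no effect and buffer without enzyme for full effect; nearly all actives have a fitted effect of over 40% in size; top concentration of the series not given in the record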
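In this qHTS format, compounds are incubated with 1.5 nM cruzain for 15 min at room temperature before 2 uM Z-FR-AMC is added. Release of AMC is followed at 360/450 nm, and progress is taken as the 60 s fluorescence difference.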
SARS PLpro yeast: SARS-CoV PLP inhibition in yeast; S. cerevisiae expressing SARS-CoV PLpro, growth rescue; control for the full effect not named in the record; Potency, µM (titrated, usually from 32.9 µM), inactives show top-dose activity, positive = growth rescue; 0.19% of 330,000 active; AID 485353; further: 0% is about no effect; nearly all actives have a fitted effect of over 55% in size; growth read by luminescence after 48 h
RE007 growth inh: less growth of the S. pombe RE007 Vpr strain. S. pombe RE007 Vpr strain, BacTiter-Glo ATP luminescence, 24 h; control for the full effect not named in the record. Potency, µM (doses to about 92.2 µM), for the others: top-dose activity change, negative = less growth. 0.21% of 360,000 active. AID 651644; active = well fitted falling curve with a large enough effect; inconclusive = small, poorly fitted or top-dose-only effect; inactive = no such curve, though single readings can be large or run the other way;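 further: on the % scale 0 is the no-effect control and ±100 the full control effect; nearly all actives have a fitted effect of over 50% in size; the assay follows cell death caused by Vpr and the record does not say whether a fall means rescue or toxicity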
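Fission yeast RE007 carrying one integrated HIV-1 vpr copy, seeded at OD 0.01 in PMG+AL medium with 23 nL pinned compound. Grown 24 h at 30 degrees; viability read by BacTiter-Glo luminescence after 5 min.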
Lassa entry inh: Lassa virus entry inhibition; 1.2% of 300,000 active; AID 540256; Potency, µM (titrated, usually from 37.9 µM), for the others: at the highest dose activity change, negative = inhibition, most hits filed as inhibitors; Lassa virus pseudotype entry inhibition, cell reporter; control for the full effect not named in the record; active means well fitted inhibition curve with a large enough effect; inconclusive means small, poorly fitted or top-dose-only effect, or effect the other way; inactive means flat fitted curve, though single readings scatter; tested in HEK293 cells; further: on the % scale 0 is the no-effect control and ±100 the full control effect; nearly all actives have a fitted effect of over 50% in size; luciferase read-out
2A StopGo: FMDV 2A StopGo reporter, luciferase signal; human cells with a luciferase reporter of 2A StopGo recoding; control for the full effect not named in the record; Potency, µM (highest dose often 57.9 µM), for the others: at the top dose signal change, negative = less light; 1.2% of 410,000 active; AID 1159524; active = well fitted falling curve with a large enough effect; inconclusive = small, poorly fitted or top-dose-only effect; inactive = no such curve, though single readings can be large or run the other way; tested in HEK293T cells; further: on the % scale 0 is the no-effect control and ±100 the full control effect; nearly all actives have a fitted effect of over 45% in size; luciferase light after 4 h
NS1 function inh: inhibitors of influenza NS1 protein function | S. cerevisiae slowed by influenza A NS1, growth recovery by OD600 | Potency, µM (top dose mostly 46.1 µM), without a hit: top-dose activity, positive = more growth | 0.4% of 270,000 active; further: actives are rising curves; nearly all actives have a fitted effect of over 50% in size
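Recovery from NS1-induced slow growth read by OD600 in budding yeast switched to galactose assay medium (pH 6.0, -URA) at 1:100 dilution. Compound 23 nl per well; the matching strain lacking NS1 serves as control.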
* hit, by the source's call; u = inconclusive; x = not tested or not shown; & = joins results of further samples; [ ] = remark or other dose. Unless noted, the call rests on the fitted dose curve; in most records, active means well fitted rising curve with a large enough effect; inconclusive means small, poorly fitted or top-dose-only effect; inactive means no such curve, though single readings can be large or run the other way. Potency means the concentration at half of the fitted maximal effect.

#1 CCCCC1CCC(C(=O)N(CCCC)c2c(N)n(CCCC)c(=O)[nH]c2=O)CC1 (stereo unspecified)
#2 COC(=O)c1cc(OC)c(OC)cc1NC(=O)c1cc(C(C)(C)C)oc1C
#3 CCCc1cc2nnc(SCC(=O)N(C)C3CCCCC3)n2c(N)n1
#4 COc1ccc(C(CC(=O)Nc2ccc(F)c(Cl)c2)N2Cc3ccccc3C2=O)cc1OC (stereo unspecified)
#5 O=C(Nc1ccc2c(c1)CCC2)c1c(F)cccc1Cl
#6 COc1ccc(-n2nc3c(c2NC(=O)c2ccc(S(=O)(=O)N4CCOCC4)cc2)CS(=O)(=O)C3)cc1

compound no.	1	2	3	4	5	6
MARV entry inh	2%	5%[46.1 µM]	-9%[46.1 µM]	x	18%[46.1 µM]	u
Cruzain noTriton	x	x	x	1%	x	x
Cruzain inh Det	x	x	x	-8.7%	x	x
SARS PLpro yeast	18%	-1%	1%	x	3%	5%
RE007 growth inh	1%	0%	8%	x	-24%	5%
Lassa entry inh	-8%	-3%[46.1 µM]	x	-6%[46.1 µM]	1%[46.1 µM]	12%
2A StopGo	-19%	-13%	10%	37%[activator]	31%[activator]	-3%
NS1 function inh	20%	5%	2%	x	x	x

#7 COc1cc(Cl)c(NC(=O)C(NS(=O)(=O)c2cccs2)C(C)C)c(OC)c1 (stereo unspecified)
#8 N#Cc1nc(-c2ccccc2Cl)oc1NCc1ccco1
#9 Cc1cc(N2CCN(C)CC2)nc(N2CCOCC2)n1
#10 COc1cc(Br)c(C2CC(=O)Nc3cc(OC)c(OC)cc32)cc1OC (stereo unspecified)
#11 Cc1ccc2c(c1)[nH]c1c(=O)n(CCC3=CCCCC3)cnc12
#12 COC(=O)c1ccc(CC(=O)c2c(C)cc(O)cc2O)o1

compound no.	7	8	9	10	11	12
MARV entry inh	x	-8%	3%	x	5%	26%
Cruzain noTriton	-7%	3%	1%	x	20µM*	-4%
Cruzain inh Det	-0.8%	-3.8%	-1.6%	x	4.5%	-5.9%
SARS PLpro yeast	x	-25%	24%	-5%	2%	-1%
RE007 growth inh	x	-16%	-20%	u	x	5%
Lassa entry inh	0%[46.1 µM]	10%	4%	x	x	17%
2A StopGo	-1%	x	-8%	73%[activator]	x	-17%
NS1 function inh	x	-29%	2%	-5%	-3%	3%

#13 Cc1cc(C(F)(F)F)c(C#N)c(SCC(=O)NC2CC2)n1
#14 CCOC(=O)N1CCN(C(c2ccccc2)c2sc3nc(C)nn3c2O)CC1 (stereo unspecified)
#15 CCOC(=O)c1sc2ncnc(N3CCN(c4ccc(OC)cc4)CC3)c2c1C
#16 O=S(=O)(Nc1ccc(Cc2ccncc2)cc1)c1ccc(Cl)c(Cl)c1
#17 Cc1ccc(S(=O)(=O)Nc2cccc(C(=O)NCC3CCCO3)c2)cc1F (stereo unspecified)
#18 CN(C)CCCNC(=O)CCC1CCCCC1

compound no.	13	14	15	16	17	18
MARV entry inh	2%&2%	7%	-27%	u	-19%	6%
Cruzain noTriton	7%	9%	13%	-13%	x	-9%
Cruzain inh Det	0.9%	-2.2%	-3.1%	-7.3%	x	5.5%
SARS PLpro yeast	-3%	-11%	2%	-14%	2%	2%
RE007 growth inh	2%	20%	18%	-3%	-17%	15%
Lassa entry inh	6%	-22%	u	-25%	3%	14%
2A StopGo	-10%	x	x	-6%	-5%	-11%
NS1 function inh	-4%	-9%	2%	-107%	x	-8%

#19 COc1ccccc1N1CCN(C(=O)COc2ccc(Cl)cc2Br)CC1
#20 COc1ccc(N(C(=O)c2ccco2)C(C(=O)NC2CCCC2)c2cc(OC)c(OC)c(OC)c2)cc1 (stereo unspecified)
#21 CCn1c(=O)c2ccccc2n2c(SCC(=O)N3CCc4ccccc4C3)nnc12
#22 CCOC(=O)c1c(NC(=O)CC2SC(=NC)N(C)C2=O)sc(C)c1C (stereo unspecified)
#23 Cc1ccc(/C=C/C(=O)OCC(=O)N2CC(=O)Nc3ccccc32)o1
#24 O=C(O)c1c2cc(Br)ccc2nc2[nH]c(=O)[nH]c(=O)c12

compound no.	19	20	21	22	23	24
MARV entry inh	u	-1%[46.1 µM]	20%	u	3%[46.1 µM]	-1%[46.1 µM]
Cruzain noTriton	u	x	-5%	u	x	x
Cruzain inh Det	-1.9%	x	5.3%	6.3%	x	x
SARS PLpro yeast	u	-1%	5%	10%	1%	x
RE007 growth inh	66%	1%	7%	2%	-11%	-7%
Lassa entry inh	u	5%	-17%	-21%	-4%	-24%[46.1 µM]
2A StopGo	u	-16%	-3%	13%	-20%	23%
NS1 function inh	-142%	9%	-2%	u	-4%	x

#25 CCOCCCNC(=O)c1ccc2c(c1)ncn2-c1ccc(C)cc1C
#26 COc1ccc(C(=O)n2cc(C(=O)c3cc(C)ccc3O)cn2)cc1
#27 CCc1ccc(OCc2ccc(C(=O)OC)o2)cc1
#28 COc1ccc(NC(=S)N(CCN(C)C)Cc2cccs2)cc1
#29 OCC1OC(Oc2c(Br)cc(Br)cc2Br)C(O)C(O)C1O (stereo unspecified)
#30 CC(C)CC(CO)N1CCN(C(=O)c2cccc(C(F)(F)F)c2)CCC1=O (stereo unspecified)

compound no.	25	26	27	28	29	30
MARV entry inh	-3%[46.1 µM]	u	x	-28%[46.1 µM]	15%[46.1 µM]	-8%
Cruzain noTriton	x	-13%	x	x	x	-2%
Cruzain inh Det	x	-5.7%	x	x	x	-3.6%
SARS PLpro yeast	-1%	-3%	-2%	1%	x	-7%
RE007 growth inh	7%	7%	-3%	-10%	-29%	-13%
Lassa entry inh	u	26%	x	1%	0%[46.1 µM]	-17%
2A StopGo	-15%	-12%	36%[activator]	0%	54%[activator]	-18%
NS1 function inh	-2%	-5%	-8%	x	x	9%

#31 O=C(NCCCN1CCOCC1)c1ccc(N2CCCC2)c([N+](=O)[O-])c1
#32 O=C(Nc1nc2ccccc2n1Cc1ccccc1)c1ccco1
#33 CN(C)C(=O)C(OC(=O)c1ccc2c(c1)CCCC2)c1ccccc1 (stereo unspecified)
#34 CCOC(=O)c1ccc(NC(=O)C2CCN(C(=O)N3CC(C)Oc4ccc(C)cc43)CC2)cc1 (stereo unspecified)
#35 CCOc1ccc(Cl)cc1CN1CCOCC1
#36 COc1ccc(NS(=O)(=O)c2ccc3oc(SCc4ccc(F)cc4)nc3c2)cc1

compound no.	31	32	33	34	35	36
MARV entry inh	3%[46.1 µM]	u	u	x	1%	u
Cruzain noTriton	x	-17%	x	-3%	-5%	-10%
Cruzain inh Det	x	-2.4%	x	-1.7%	5.3%	-2.1%
SARS PLpro yeast	1%	1%	-3%	x	-8%	-29%
RE007 growth inh	-3%	-1%	0%	x	4%	-2%
Lassa entry inh	u	-22%	u	10%[46.1 µM]	5%	u
2A StopGo	-6%	0%	-12%	-24%	-19%	u
NS1 function inh	0%	u	-12%	x	-2%	12%

#37 Cc1cc(C)n(Cc2ccccc2)c(=O)c1S(=O)(=O)c1ccccc1
#38 O=C(CSC1=NC2(CCCCCC2)N=C1c1ccccc1)Nc1ccc2c(c1)OCCO2
#39 O=C(NCCc1ccccn1)C1CCCN1S(=O)(=O)c1ccc(Cl)cc1 (stereo unspecified)
#40 Cc1ccc2nc(-c3ccccc3)cc(C(=O)Nc3cccnc3)c2c1
#41 O=C(COc1ccc(S(=O)(=O)N2CCOCC2)cc1)NC1CCCC1
#42 COC(CNC(=O)CN1CCN(Cc2ccccc2F)C1=O)OC

compound no.	37	38	39	40	41	42
MARV entry inh	1%	u	u	-10%	-5%	x
Cruzain noTriton	-2%	3%	x	x	6%	x
Cruzain inh Det	1.9%	-3.6%	x	x	2.2%	x
SARS PLpro yeast	-1%	-42%	-3%	5%	5%	1%
RE007 growth inh	5%	7%	-3%	3%	11%	13%
Lassa entry inh	11%	u	21%[46.1 µM]	-9%	26%[14.3 µM]	x
2A StopGo	17%	-22%	-2%	-18%	14%	-14%
NS1 function inh	16%	17%	10%	x	-5%	-1%

No new results follow: four of the compounds above.
#39 O=C(NCCc1ccccn1)C1CCCN1S(=O)(=O)c1ccc(Cl)cc1 (stereo unspecified)
#40 Cc1ccc2nc(-c3ccccc3)cc(C(=O)Nc3cccnc3)c2c1
#41 O=C(COc1ccc(S(=O)(=O)N2CCOCC2)cc1)NC1CCCC1
#42 COC(CNC(=O)CN1CCN(Cc2ccccc2F)C1=O)OC

compound no.	39	40	41	42
MARV entry inh	u	-10%	-5%	x
Cruzain noTriton	x	x	6%	x
Cruzain inh Det	x	x	2.2%	x
SARS PLpro yeast	-3%	5%	5%	1%
RE007 growth inh	-3%	3%	11%	13%
Lassa entry inh	21%[46.1 µM]	-9%	26%[14.3 µM]	x
2A StopGo	-2%	-18%	14%	-14%
NS1 function inh	10%	x	-5%	-1%

(continued)
#43 COc1ccc2nc(NC(=O)c3nc(SCc4cccc(C)c4)ncc3Cl)sc2c1
#44 CCCCCCn1c(CN2CCCCC2CC)nc2c1c(=O)n(C)c(=O)n2C (stereo unspecified)
#45 O=C(Nc1ccc(F)cc1F)C1CCN(C(=O)c2ccc(Br)cc2)CC1
#46 Cc1cc(C)n(-c2nnc(Nc3cc(Cl)ccc3C)c3ccccc23)n1
#47 COc1cccc(C(=O)Nc2cc(C(F)(F)F)ccc2Cl)c1
#48 Cc1nc2cc(NC(=O)N(C)c3ccc4ccccc4c3)ccc2o1
#49 CCOc1ccccc1NC(=O)Cn1nnc(-c2ccc(OCC)c(OCC)c2)n1
#50 O=C(NCc1ccccc1Cl)C(=O)NCC(c1ccco1)S(=O)(=O)c1cccs1 (stereo unspecified)

compound no.	43	44	45	46	47	48	49	50
MARV entry inh	-24%[46.1 µM]	x	x	x	-1%	6%	u	x
Cruzain noTriton	4%	7%	x	1%	4%	5%	24%	-3%
Cruzain inh Det	0.2%	-1.1%	x	-0.5%	-5.1%	-4.8%	-1.6%	-7.6%
SARS PLpro yeast	x	3%	0%	x	-5%	-5%	0%	x
RE007 growth inh	x	-1%	-16%	x	6%	12%	-9%	x
Lassa entry inh	6%[46.1 µM]	x	x	17%[46.1 µM]	12%	13%	u	-21%[46.1 µM]
2A StopGo	-8%	-17%	3%	-14%	x	x	x	0%
NS1 function inh	x	-88%	-5%	x	-12%	5%	5%	x
